Vaccinia mCherry – inhibitors of vaccinia virus infection (mCherry reporter signal); actives 0.63% (n = 310,000); Potency, µM (series often up to 36.5 µM), inactives show top-dose activity change, negative = inhibition, actives largely listed as inhibitors; Vaccinia virus mCherry reporter infection, fluorescence; about a quarter of the inactives have no number; active = well fitted inhibition curve with a large enough effect; inconclusive = small, poorly fitted or top-dose-only effect; inactive = no such curve, though single readings can be large or run the other way; tested in A549 cells; further: nearly all actives have a fitted effect of over 35% in size; inactives centre near -10
VACV Venus inh – inhibitors of vaccinia virus (Venus reporter) | Vaccinia virus Venus reporter expression, fluorescence | Potency, µM (titrated, usually from 36.5 µM), inactives show top-dose activity change, negative = inhibition, hits mostly inhibitors | actives 0.46% (n = 330,000); active means well fitted inhibition curve with a large enough effect; inconclusive means small, poorly fitted or top-dose-only effect; inactive means no such curve, though single readings can be large or run the other way; tested in A549 cells; further: nearly all actives have a fitted effect of over 30% in size; inactives centre near -10
* = called active by the depositor; i = inactive; ? = inconclusive; nt = not tested or not shown; & = joins results of further samples; [ ] = dose if it differs, or a comment. On the % scale 0 is the no-effect control and ±100 the full control effect; potency means the concentration at half of the fitted maximal effect.

Values run as follows: Vaccinia mCherry	VACV Venus inh
COc1ccc(NC(=O)COc2ccc(/C=N/n3c(C)nnc3C)cc2OC)cc1
 : nt	-4.6%
O=c1cnnc(N/N=C/c2ccc3c(c2)OCO3)[nH]1
 : ?	4.1%
CCOC(=O)c1ccc(NC2SC(=O)N(Cc3cccc(C(=O)O)c3)C2=O)cc1 (stereo not drawn)
 : -14.1%	-13.1%
Cc1cccc(NC(=O)CO/N=C/c2ccc3c(c2)OCO3)c1
 : -11.9%	-11.6%
COc1ccc(N2CCN(C(=O)CCn3c(=O)c4cccn4c4cccnc43)CC2)cc1
 : -8.9%	-14.3%
Cc1cccc2cc(CN(Cc3cccnc3)C(=O)c3ccccc3F)c(Cl)nc12
 : -29.7%	-28.4%
CCn1c(SCC(=O)Nc2ccc(NC(=O)c3cccs3)cc2)nnc1-c1cccnc1
 : nt	-11.3%
O=C(NCCc1ccc(F)cc1)C(=O)NCC(c1cccs1)S(=O)(=O)c1ccc(Cl)cc1 (stereo not drawn)
 : ?	-27.8%
COc1cccc(CNC(=O)CCN2C(=S)NC(C)(C)CC2C)c1 (stereo not drawn)
 : -6.6%	-14.2%
CC1(c2ccccc2)NCCN2C(=O)CSC21 (stereo not drawn)
 : -6.8%	-1.2%
CNC(=O)Nc1ccc(C(O)(C(=O)OC)C(F)(F)F)cc1 (stereo not drawn)
 : i[7.34 µM]	-2.2%[7.34 µM]
COc1ccc(CCN2CC(C(=O)NCc3ccc(F)cc3)CC2=O)cc1OC (stereo not drawn)
 : -0.2%	-3.0%
C/C(=N\NC(=O)Cn1cnc2ccccc21)c1cccs1
 : -11.6%	-2.1%
CCc1ccc(NC(=O)N2CC(C)Oc3ccc(C)cc32)cc1 (stereo not drawn)
 : -3.6%	-13.2%
COc1ccc(C)cc1NC(=O)C(=O)N1CCCC1
 : i	-7.1%
CCCCC(=O)OC1=C(C(=O)c2ccccc2)N(CC)S(=O)(=O)c2ccccc21
 : -14.7%	-11.4%
COc1ccc2c(c1)sc(=NC(=O)CS(=O)(=O)c1ccc(F)cc1)n2C
 : i	-17.2%
COc1ccc(C)cc1NC(=O)c1nc2nc(C)cc(C)n2n1
 : -17.2%	-4.6%
Cc1cccc(C(=O)c2c[nH]cc2-c2ccccc2)c1
 : -14.2%	-13.2%
CCCCC(=O)N1CC(=O)Nc2ccc(F)cc2C1c1ccc(F)cc1 (stereo not drawn)
 : -12.2%&-4.3%	0.0%&-10.1%

The listing continues.
Values run as follows: Vaccinia mCherry	VACV Venus inh
CNC(=O)CSc1nnnn1-c1ccc2c(c1)OCCO2
 : -11.7%	-6.6%
O=C(CS(=O)(=O)c1c[nH]c2ccccc12)N1CCc2ccccc21
 : -1.3%	-23.7%
Cc1nnc(N2CCN(c3ccccc3F)CC2)c2c1nnn2Cc1ccc(F)cc1
 : -3.4%	-11.9%
CC1(Cc2ccccc2OC(F)(F)F)C(=O)Nc2ccc(S(=O)(=O)NC3CCCCC3)cc21 (stereo not drawn)
 : -10.1%	-2.7%
O=C(NCc1ccc(Cl)cc1)C(=O)NCC1OCCN1S(=O)(=O)c1cccs1 (stereo not drawn)
 : -1.0%	-17.0%
Cc1ccc(S(=O)(=O)NC(=O)NC(C)c2ccc(F)cc2)cc1 (stereo not drawn)
 : -7.7%	5.8%
CN1CCCC(OC(=O)CCCCC(=O)OC2CCCN(C)C2)C1 (stereo not drawn)
 : nt	-3.6%
COc1cc(OC)cc(C(=O)N2CCC(N3CCN(c4ccccc4)CC3)CC2)c1
 : -2.8%	-3.3%
CC(=O)Nc1ccc(NC(=O)CC(c2ccccc2)c2ccccc2)cc1
 : -9.2%	-23.1%
O=C(CN1C2CCCC1CC(NC(=O)c1ccccc1)C2)Nc1ccccc1 (stereo not drawn)
 : -18.4%	-5.1%
COc1cc(OC)c(N(C)S(=O)(=O)c2cccc(C(=O)OCc3c(C)noc3C)c2)cc1Cl
 : -6.0%	-10.8%
COc1cc(CNCCc2ccccc2)ccc1OCC(N)=O
 : -9.3%	-10.8%
COc1ccc(NC(=O)CSc2nnnn2-c2cccc(OC)c2)cc1
 : -12.0%	1.1%
CC1(C(=O)O)CCCN1C(=O)c1ccc(Cl)cc1Cl (stereo not drawn)
 : 58.5%[activator]	9.4%
Cc1c(Br)cnc2ccccc12
 : -8.1%	-6.6%
CCCSc1nnc(NC(=O)c2cc(=O)c3ccccc3o2)s1
 : -8.2%	-4.9%
CN(C)C(CN1C(=O)C2CC=CCC2C1=O)c1cn(C)c2ccccc12 (stereo not drawn)
 : -19.5%	-5.1%
CCOc1cc([N+](=O)[O-])c2nc(N)sc2c1
 : -7.7%	6.0%
CCc1nc2ccccc2c(=O)n1/N=C/c1ccc(Cl)cc1
 : 3.2%[7.34 µM]	0.1%[7.34 µM]
Cc1ccc(N2CCN(S(=O)(=O)c3ccc(F)c(C(=O)Nc4ccc(Cl)cc4Cl)c3)CC2C)cc1 (stereo not drawn)
 : -18.0%	-15.0%

Continuation:
Values run as follows: Vaccinia mCherry	VACV Venus inh
Cc1ccc(Cl)cc1N1CCN(C(=O)C(C)n2ncn3cccc3c2=O)CC1 (stereo not drawn)
 : -9.8%&-13.4%	-10.4%&-3.7%
CS(=O)(=O)Nc1cccc(C2=NN(C(=O)CCCC(=O)O)C(c3cccs3)C2)c1 (stereo not drawn)
 : -15.4%	-4.2%
O=C(O)C1C2CC(C(Br)C2Br)C1C(=O)O (stereo not drawn)
 : i	-12.3%
Fc1cccc(CN2CCN(c3ccc(Cl)cc3)CC2)c1
 : -3.7%	-5.8%
CCOc1ccc(CCNC(=O)C2CCC(CNS(=O)(=O)c3ccc(Cl)cc3)CC2)cc1OCC (stereo not drawn)
 : -1.5%	-6.9%
O=C(Nc1ccccc1F)c1ccc(Cn2cc(Cl)cn2)cc1
 : i	-16.8%
O=C(Cn1cc(C(=O)C(F)(F)F)c2ccccc21)N1CCOCC1
 : -2.6%	0.3%
COc1ccc(-c2noc(N3CCC(C(=O)Nc4ccccc4F)CC3)n2)cc1
 : i	-28.8%
CCOc1ccc2nc(SCC3CC3(Cl)Cl)[nH]c2c1 (stereo not drawn)
 : ?	?
c1ccc2c(c1)OCC(c1csc3ncnc(N4CCCCC4)c13)O2 (stereo not drawn)
 : -8.6%	3.1%
CN(C)c1cccc(C(=O)OCC(=O)Nc2nccs2)c1
 : i	-14.8%
CSc1nnc(SCc2nc3sc(C(=O)O)c(C)c3c(=O)[nH]2)s1
 : -20.2%	-0.6%
Cc1csc(=O)n1CCC(=O)OCC(=O)NNC(=O)c1ccc(Cl)cc1
 : i	-14.7%
O=C(CNS(=O)(=O)c1ccc(Cl)cc1)OCC(=O)N1CCCc2ccccc21
 : i	-7.4%
Cc1nc(CNS(=O)(=O)c2ccc3ccccc3c2)cs1
 : ?	-24.2%
CCC(CC)c1nnc(NC(=O)CN2C(=O)NC3(CCCC3)C2=O)s1
 : i	-19.1%
Cc1ccc(SCCC(=O)OC(C(=O)NC(N)=O)C(C)C)cc1 (stereo not drawn)
 : -6.7%	-9.0%
CCc1ccc(CNC(=O)CN2C(=O)C3CCCCN3c3ccc(C(=O)N4CCCC4)cc32)cc1 (stereo not drawn)
 : -7.2%	-11.8%
COc1cc(N2CCOCC2)ccc1C=C(C#N)C#N
 : -8.1%	0.0%
CCN(C(=O)Cn1c(=O)n(-c2ccccc2)c(=O)c2ccc(C(=O)NCc3ccc4c(c3)OCO4)cc21)c1cccc(C)c1
 : -12.4%	-14.7%

Next part.
Values run as follows: Vaccinia mCherry	VACV Venus inh
COCCNc1nc2cc(-c3ccsc3)sc2c(=O)n1C
 : -0.5%	?
Cc1ccc(C(C(=O)NC2CCCC2)N(C(=O)Cc2cccs2)c2cccc(C)c2C)o1 (stereo not drawn)
 : -2.2%	-25.4%
CCC(=O)c1c(CC)c2n3c1CC[C@H]3CCC2
 : i	-11.3%
Cc1cc(C)cc(N(C(=O)c2csnn2)C(C(=O)NC2CCCCC2)c2ccccn2)c1 (stereo not drawn)
 : -10.9%	-3.5%
CCOc1ccc(CCNC(=O)CS(=O)(=O)Cc2nc(-c3ccccc3F)oc2C)cc1
 : i	-20.0%
Cc1cc(-c2ccccc2)n(-c2ccc(C(=O)NC(C)C)cc2)n1
 : i	-7.7%
N#Cc1cccc(NC(=O)c2cc3c(s2)-c2ccc(Cl)cc2SC3)c1
 : ?	?
CCN(CC)CCN(C(=O)c1ccc2c(c1)CCCC2)c1nc2ccc(F)cc2s1
 : -2.6%	-15.1%
NC(=O)C1(N2CCCCC2)CCN(S(=O)(=O)c2cc(Cl)ccc2Cl)CC1
 : -15.5%	-12.1%
O=C(Cc1ccccc1)OCCN1CCCCC1
 : i	-12.7%
COc1ccccc1-n1ccnc1SCC(=O)NC(C)(C)C
 : i	-15.0%
Cc1cnc(NC(=O)Nc2ccc(OCc3ccccc3)cc2)c(Br)c1
 : -1.0%	-3.6%
NS(=O)(=O)c1ccc(CCNS(=O)(=O)c2ccccc2)cc1
 : -17.7%	-21.8%
NS(=O)(=O)c1ccc(CCNC(=O)CN2CCN(Cc3cccc(C(F)(F)F)c3)CC2)cc1
 : -18.7%	-9.2%
Cn1nnnc1SCC(=O)N1CCc2ccccc21
 : -7.5%	-18.0%
COCC(=O)N(Cc1cc2cc(C)ccc2[nH]c1=O)c1ccc(C)c(C)c1
 : -1.5%	-14.3%
COc1ccc(-c2nn(-c3ccc(F)cc3)c3c2cnc2cc4c(cc23)OCO4)cc1
 : 1.2%	0.3%
Cc1cc(C)cc(C(=O)NCC(=O)N2CCN(c3cccc(Cl)c3)CC2)c1
 : i	-20.6%
CCN(C(=O)c1cn(CC)c(=O)c2cc(OC)c(OC)cc12)c1ccc(C)c(C)c1
 : -12.7%	-6.6%
CC(C)(O)C#Cc1ccc(CN2CCN(Cc3ccccc3)C(CCO)C2)cc1 (stereo not drawn)
 : -19.4%	-16.4%

Carrying on.
Values run as follows: Vaccinia mCherry	VACV Venus inh
COc1ccccc1Cc1nc2ccccc2nc1SCC(=O)N1CCC(C)CC1
 : -7.1%	-11.4%
C#CCOCCOCCOCCNc1nc(N2CCN(C(=O)[C@H](Cc3ccc(O)cc3)n3cc([C@@H](N)C(C)CC)nn3)CC2)nc(N2CCN(C(=O)[C@H](Cc3cc4ccccc4[nH]3)n3cc([C@@H](N)C(C)CC)nn3)CC2)n1 (stereo partly drawn)
 : i	-11.0%
O=C1CC(c2ccccc2)=Nc2ccccc2N1Cc1ccccc1
 : i	2.2%
O=c1cc(-c2ccc([N+](=O)[O-])cc2)c2ccc(O)cc2o1
 : -7.1%	-12.9%
COC(=O)CC1Oc2ccc(C)cc2NC1=O (stereo not drawn)
 : -6.2%	-6.4%
CCOc1cc(S(=O)(=O)N(Cc2ccccc2)Cc2ccccc2)c(OCC)cc1-n1cnnn1
 : -13.2%	-4.8%
Cc1ccc(C(=O)Nc2ccc3c(c2)C(=O)N(C)C3=O)c(C)c1
 : -3.7%	-26.0%
Cc1ccc(C(=O)NNC(=O)C2CCCN(c3ncccn3)C2)cc1 (stereo not drawn)
 : i	-5.8%
COc1ccc(-c2c(C)cc3oc(=O)cc(-c4ccccc4)c3c2C)cc1OC
 : i	-14.3%
O=C(Cc1ccccc1)c1ccc2c(c1)OCCO2
 : i	0.0%
Cc1ccc(-c2cc(C(=O)OCC(=O)Nc3ncc(C(F)(F)F)cc3Cl)c3ccccc3n2)cc1
 : -2.2%	-6.9%
CCOc1ccccc1NC(=O)CSc1nnc(Cn2c(=O)sc3ccccc32)n1C
 : -5.5%	-6.1%
O=C(O)CSCc1cn2cc(Cl)ccc2n1
 : i	-13.6%
CC(C)c1ccccc1NC(=O)COC(=O)Cc1ccsc1
 : -11.4%	0.6%
OC(CCCCN1CCCCC1)c1ccccc1 (stereo not drawn)
 : i	-2.8%
Cc1cc(C)nc(-n2nc(C)cc2NC(=O)c2ccc(F)cc2F)n1
 : ?	-11.6%
COc1cc2c(cc1OC)-c1c(OC)c(OC)cc3c1C(C2)N(C)CC3 (stereo not drawn)
 : -15.2%	-13.6%
O=C(c1ccc(S(=O)(=O)N2CCOCC2)cc1)N1CCOCC1
 : -0.8%	-7.9%
O=C(C1CCCN1S(=O)(=O)c1cccc2cccnc12)N1CCc2ccccc2C1 (stereo not drawn)
 : i	-3.2%
Cc1csc(Sc2ccc(S(=O)(=O)N3CCCC3)cn2)n1
 : 8.91µM*	?

One compound at a time, as listed above. Values in the order: Vaccinia mCherry	VACV Venus inh
Results for `Cc1ccc(S(=O)(=O)NC(=O)NC(C)c2ccc(F)cc2)cc1` (stereo not drawn) → -7.7%	5.8%
Results for `COc1ccc(N2CCN(C(=O)CCn3c(=O)c4cccn4c4cccnc43)CC2)cc1` → -8.9%	-14.3%
Results for `O=C(O)C1C2CC(C(Br)C2Br)C1C(=O)O` (stereo not drawn) → i	-12.3%

Going on with the list:
Values run as follows: Vaccinia mCherry	VACV Venus inh
CCOC(=O)[C@]12Cc3cc(OC)ccc3[C@H]1N(C)C(=O)c1ccccc12
 : -14.6%	-4.3%
COc1ccc(Cl)cc1NC(=O)CSc1cn(CC(=O)N2CCCCCC2)c2ccccc12
 : -24.6%	-22.2%
O=C(CN1CCN(Cc2ccccc2)CC1)Nc1cccc(Cl)c1Cl
 : -11.1%	-14.4%
O=C(NCc1cccc(Cl)c1)C1CCC(=O)N(CCN2CCOCC2)C1 (stereo not drawn)
 : -10.8%	-5.8%
Cn1c(Cn2nnc3ccccc32)nnc1SCC(=O)N1CCc2ccccc21
 : -11.5%	-3.0%
Oc1ccc2oc3c(c2c1C=NCc1ccncc1)CCCC3
 : ?	-16.2%
COc1ccc(C)cc1N(CC(=O)N1CCOCC1)S(C)(=O)=O
 : i	0.5%

Source: PubChem (National Center for Advancing Translational Sciences (NCATS))
